E coli growth – E. coli growth inhibition, primary screen, OD600; OD600 absorbance (no concentration beside the values); Escherichia coli growth, 23 h; stronger effect = lower value; actives 0.21% (n = 330,000);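 active = OD600 absorbance below the run mean of sample wells minus 3.6 SD, in any replicate, cut at about 0.56 in these data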;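 note: stock transfer was 300 nL into about 60 µL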
B2AR ag – beta2AR agonists driving receptor internalization, primary screen, cell-based, FAP fluorogen, flow cytometry | AID 504454, 2011 | actives 0.43% (n = 340,000) | Am2.2-beta2AR cells; reference of the scale not given here | Beta-2 adrenergic receptor (Homo sapiens), P07550 | response, % (no concentration beside the values);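 active = response above a set limit, near 3 SD of response in nonfluorescent compounds, cut at about 42% in these data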;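 note: stock transfer was 100 nL into about 11 µL; a reference agonist was the positive control; negative values mostly stem from fluorescent compounds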
Target sequence (P07550 whole entry, looked up): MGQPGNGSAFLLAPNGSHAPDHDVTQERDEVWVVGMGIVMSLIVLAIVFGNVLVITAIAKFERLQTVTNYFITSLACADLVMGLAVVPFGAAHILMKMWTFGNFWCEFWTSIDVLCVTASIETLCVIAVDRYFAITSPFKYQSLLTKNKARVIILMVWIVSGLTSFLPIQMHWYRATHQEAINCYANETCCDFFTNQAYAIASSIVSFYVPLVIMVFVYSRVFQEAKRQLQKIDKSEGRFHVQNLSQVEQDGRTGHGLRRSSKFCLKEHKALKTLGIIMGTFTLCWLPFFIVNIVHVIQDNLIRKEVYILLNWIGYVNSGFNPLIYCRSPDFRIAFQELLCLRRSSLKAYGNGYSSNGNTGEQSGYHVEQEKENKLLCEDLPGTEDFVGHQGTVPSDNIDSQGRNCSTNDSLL
LANA-H2B inh – blockers of LANA interaction with H2A/H2B – biochemical, FP readout, HTS, primary screen; inhibition, % (test concentration not listed); Protein LANA1 (Human herpesvirus 8 type P (isolate GK18)), Q9QR71; cell-free LANA-H2A/H2B peptide, fluorescence polarization; AID 2629, 2010; actives 0.6% (n = 320,000); in the data active = inhibition mostly above about 10%, no sharp cut-off; inactive = mostly below about 6.7%;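 note: stock transfer was 7.5 nL into about 10 µL; 0% = median of vehicle wells and 100% = median of positive control wells; one replicate is shown; the record names a cut of 25% in any replicate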
FGF22 binding – binders of human FGF22 protein, primary screen, FGF22 synaptogenesis inhibitor project, biophysical, thermal shift, single point | Fibroblast growth factor 22 (Homo sapiens), Q9HCT0 | recombinant FGF22 thermal shift, SYPRO orange fluorescence; percent of sucrose octasulfate shift, DMSO zero | calls only at 9.99 µM | actives 1.5% (n = 340,000);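 active = melting point raised past a set limit in the mean and every replicate; three in four hits are not shown here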
Target sequence (Q9HCT0 whole entry, looked up): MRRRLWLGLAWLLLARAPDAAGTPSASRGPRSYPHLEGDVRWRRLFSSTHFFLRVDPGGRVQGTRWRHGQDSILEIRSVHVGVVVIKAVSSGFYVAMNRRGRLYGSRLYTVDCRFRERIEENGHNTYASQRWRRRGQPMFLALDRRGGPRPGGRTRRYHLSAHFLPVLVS
UCH37 inh – inhibitors of human UCH37 deubiquitinase, primary screen, biochemical, Ub-AMC cleavage, fluorescence | purified proteasome/UCH37 | AID 588478, 2011 | inhibition, % (concentration not given with the values) | actives 0.33% (n = 330,000);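 active = mean of two replicates above 20%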;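 note: 0% = compound-free wells with enzyme and 100% = wells lacking proteasome; stock transfer was 100 nL into about 20 µL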
Target sequence (Q9Y5K5 whole entry, looked up): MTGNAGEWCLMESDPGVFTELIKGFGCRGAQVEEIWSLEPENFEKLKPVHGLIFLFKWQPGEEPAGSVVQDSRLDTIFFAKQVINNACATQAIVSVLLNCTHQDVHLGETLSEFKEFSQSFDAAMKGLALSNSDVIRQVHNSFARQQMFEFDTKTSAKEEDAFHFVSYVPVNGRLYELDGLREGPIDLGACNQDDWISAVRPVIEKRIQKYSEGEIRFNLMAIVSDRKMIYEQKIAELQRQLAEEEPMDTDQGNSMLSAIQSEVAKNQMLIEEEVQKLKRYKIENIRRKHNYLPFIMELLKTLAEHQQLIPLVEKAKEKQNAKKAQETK
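Assay system: Proteasome-bound UCH37. Buffer or medium: pH 7.4 Tris-HCl (50 mM) with ovalbumin, ATP-MgCl2, DTT. Incubation: 30 min preincubation with enzyme, 25 min cleavage at room temperature. Measured by: fluorescence, ex 355 nm, em 460 nm. Read-out basis: percent inhibition. Control set: wells without proteasome as full block, compound-free enzyme plus substrate as uninhibited.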
ALR inh – inhibitors of human ALR sulfhydryl oxidase, primary screen, biochemical, H2O2 detection, HRP-luminol luminescence, single point; actives 3.8% (n = 290,000); FAD-linked sulfhydryl oxidase ALR (Homo sapiens), P55789; inhibition, % (test concentration not listed); AID 485317, 2010; purified ALR, DTT oxidation;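 active = mean and each replicate at 75% or more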;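 note: stock transfer was 7.5 nL into about 7.5 µL; 0% = neutral wells and 100% = wells with inactivated enzyme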
HNF4A DNA FP – change in binding of human HNF4A to DNA, primary screen, biochemical, fluorescence polarization, FITC-DNA; Hepatocyte nuclear factor 4-alpha (Homo sapiens), P41235; 1 h; activity change, % at 10 µM; actives 0.3% (n = 360,000); in the data active = activity change above about 30%, passing the limit was not always enough;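 note: controls were the assay level and a saturating level of protein; the project sought stronger binding though the title names inhibitors; some compounds called inactive have numbers as strong as hits; positive values seem to mean higher polarization but the record does not say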
An asterisk follows results filed as active; i = inactive; . = no result given.

Sequence of screens – E coli growth	ALR inh	HNF4A DNA FP	UCH37 inh	LANA-H2B inh	FGF22 binding	B2AR ag
Cc1ccn2c(=O)nc(SCC(=O)N3CCC(Cc4ccccc4)CC3)nc2c1
→ 0.7	3	-3.6	6.2	-3.0	i	-3
COc1cc(NC(=O)COC(=O)CO/N=C(\C)c2ccc3c(c2)OCO3)cc(OC)c1OC
→ .	0	0.3	.	2.5	i	6
CC(C)Cn1cnc2c1c(=O)[nH]c(=O)n2Cc1ccccc1
→ 0.65	.	-1.7	7.9	-1.2	i	-3
Cc1cccc(C(=O)Nc2ccc(C(=O)Nc3ccc(O)cc3)cc2)c1
→ 0.73	-17	5.2	0.1	5.7	i	15
CCOc1cc(/C=N/NC(N)=O)cc(Br)c1OCc1ccccc1F
→ .	2	-0.1	.	-4.7	.	-6
O=C1CCCC(NCCCCCCNC2=C([N+](=O)[O-])C(=O)CCC2)=C1[N+](=O)[O-]
→ 0.67	.	-3.3	10	.	.	-2
COc1ccc(CC(NC(C)=O)C(=O)NC2CCN(c3c(Cc4ccccc4)c(C)nc4ncnn34)CC2)cc1OC (centres undefined)
→ 0.63	.	.	5.4	.	i	.
N#Cc1c(N2CCCCC2)nc(N)c2c(N)nc3c(c12)CC(c1ccccc1)O3 (centres undefined)
→ 0.72	-8	1.4	-145	-1.0	.	19
Cc1cc(NC(=O)CCCn2nc(C)c([N+](=O)[O-])c2C)no1
→ 0.7	3	6.8	4.7	-1.2	i	0
Cn1nnnc1SCc1cccc(CSc2nnnn2C)n1
→ 0.68	-3	-2.4	1.7	-3.6	i	-2

Going on with the list:
Sequence of screens – E coli growth	ALR inh	HNF4A DNA FP	UCH37 inh	LANA-H2B inh	FGF22 binding	B2AR ag
Cn1cccc1C(=O)c1ccc(Cl)cc1Cl
→ 0.73	1	2.5	7.3	3.3	.	-3
Cc1cccc(NC(=O)CCSc2nc(C)cc(C)n2)c1
→ 0.7	-13	1.7	5.8	2.9	.	-1
OCCC1CN(Cc2cnc(-c3ccccc3)s2)CCN1C1CCCC1 (centres undefined)
→ 0.71	-11	2.4	4.3	-2.5	i	1
COc1ccc2c(c1)CCC1C2=NN(/C(C)=C/C(C)=O)C1c1cccc(F)c1 (centres undefined)
→ 0.71	.	76*	-3.7	-3.5	i	-21
COC(=O)c1cc(NC(=O)C2CC(=O)NC(=NCc3ccc(OC)cc3)S2)cc(C(=O)OC)c1 (centres undefined)
→ 0.7	-4	6.4	2.8	0.8	i	4
CC(=O)c1ccc(NC(=O)C(C)Sc2nnnn2C)cc1 (centres undefined)
→ 0.69	-7	0.7	1.0	-2.5	i	8
CC1CC(O)C(C)CN1 (centres undefined)
→ 0.69	.	-2.4	4.3	.	i	3
CCN(CC)S(=O)(=O)c1ccc(/C=C/C(=O)OCC(=O)NNC(=O)c2ccc(OC)cc2)cc1
→ 0.67	1	0.9	0.3	0.1	i	-6
NC(=O)C1CCN(C(=O)c2ccc(OCC(=O)Nc3cccc(C(F)(F)F)c3)cc2)CC1
→ 0.67	0	-1.1	-0.4	-0.4	.	0
Cc1ccc(S(=O)(=O)c2nc(-c3cccs3)oc2SCC(N)=O)cc1
→ 0.7	1	11	0.4	0.4	.	1

Further entries follow.
Sequence of screens – E coli growth	ALR inh	HNF4A DNA FP	UCH37 inh	LANA-H2B inh	FGF22 binding	B2AR ag
O=C(COC(=O)CCOc1ccccc1)NCCC1=CCCCC1
→ 0.7	3	-2.1	3.6	1.5	i	4
O=C(CN(C(=O)c1csnn1)c1cccc2c1CCCC2)NCc1ccc(F)cc1
→ 0.66	-5	3.5	4.4	1.5	i	1
COc1cc(CC(=O)OCC(=O)NC2CCCC2)cc(OC)c1OC
→ 0.64	.	1.6	5.0	.	.	2
Cn1cnc(S(=O)(=O)Nc2cc(C(F)(F)F)ccc2N2CCOCC2)c1
→ 0.63	5	-0.7	3.0	1.9	i	0
CCc1cc(=O)oc2c(C)c(OC(C)C(=O)N3CCC[C@@H]3C(=O)O)ccc12 (some centres undefined)
→ 0.77	-6	-1.8	-55	-1.2	i	1
CCCCN1CN(S(=O)(=O)c2ccc(OC)cc2)c2nc3ccccc3nc21
→ 0.68	-7	4.4	-46	1.1	i	9
O=C(Nc1ccc2c(c1)OCO2)c1ccc(Br)s1
→ 0.65	-1	0.9	3.4	-7.7	.	-9
Cc1cc(C)cc(N(C(=O)C(F)(F)F)C(C(=O)NC2CCCCC2)c2cccs2)c1 (centres undefined)
→ 0.75	-3	-4.0	0.5	-1.7	.	-7
Cc1onc(-c2c(F)cccc2Cl)c1C(=O)c1ccccc1O
→ 0.65	-15	0.1	9.1	-4.5	i	-4
O=C(CN1CCOCC1)c1c[nH]c2ccccc12
→ 0.71	2	-2.2	-0.3	2.8	.	1

The listing continues:
Sequence of screens – E coli growth	ALR inh	HNF4A DNA FP	UCH37 inh	LANA-H2B inh	FGF22 binding	B2AR ag
O=C(CCc1ccccc1)Nc1ccc(S(=O)(=O)Nc2nccs2)cc1
→ 0.67	16	-0.9	2.6	1.6	i	19
O=[n+]1c2c(n([O-])c3cc(F)ccc31)CCCC2
→ 0.7	-9	2.2	13	1.3	.	7
CCCNC(=O)CN1C(=O)c2ccccc2Sc2ncccc21
→ 0.64	-4	2.0	4.6	-0.2	i	5
CCN(Cc1ccncc1)C(=O)c1cc(Br)cc(Br)c1O
→ 0.7	94*	-2.0	1.6	-2.4	i	1
COc1ccc(/C=N/NC(=O)CNC(=O)c2ccc(S(=O)(=O)N3CCCC3)cc2)c(OC)c1
→ .	-3	4.6	.	-0.2	i	-1
CCOC(=O)C1=C(c2ccccc2)NC(=O)NC1c1cccc(OC)c1OC (centres undefined)
→ 0.65	-1	-3.1	0.8	-3.5	i	-2
O=C(CCc1nc2ccccc2[nH]1)N1CCN(C(=O)c2ccco2)CC1
→ 0.72	-14	3.9	1.3	-1.1	i	-38
CCOC(=O)c1cnn(-c2nc(-c3ccccc3F)cs2)c1C(F)(F)F
→ 0.72	-2	5.7	-13	-3.5	.	-3
C=CCn1c(N2CCOCC2)nc2c1c(=O)[nH]c(=O)n2C
→ 0.68	-3	2.7	2.6	1.7	i	8
Cc1ccc(S(=O)(=O)NC(CC(C)C)C(=O)Oc2ccc3c4c(c(=O)oc3c2)CCC4)cc1 (centres undefined)
→ 0.68	.	-1.0	-396	-8.1	i	7

Record cards, from the list above:
O=C(CCc1nc2ccccc2[nH]1)N1CCN(C(=O)c2ccco2)CC1 reads E coli growth: 0.72; ALR inh: -14; HNF4A DNA FP: 3.9; UCH37 inh: 1.3; LANA-H2B inh: -1.1; FGF22 binding: i; B2AR ag: -38
CCOC(=O)C1=C(c2ccccc2)NC(=O)NC1c1cccc(OC)c1OC (centres undefined) reads E coli growth: 0.65; ALR inh: -1; HNF4A DNA FP: -3.1; UCH37 inh: 0.8; LANA-H2B inh: -3.5; FGF22 binding: i; B2AR ag: -2
CCOC(=O)c1cnn(-c2nc(-c3ccccc3F)cs2)c1C(F)(F)F reads E coli growth: 0.72; ALR inh: -2; HNF4A DNA FP: 5.7; UCH37 inh: -13; LANA-H2B inh: -3.5; FGF22 binding: .; B2AR ag: -3

Later entries.
Sequence of screens – E coli growth	ALR inh	HNF4A DNA FP	UCH37 inh	LANA-H2B inh	FGF22 binding	B2AR ag
Cc1ccc(/C=N/NC(=O)c2csc3c2CCCC3)cc1
→ .	-3	-2.7	.	-3.6	.	11
CC(C)(C)NC(=O)C12CCC(C)(c3nc4ccccc4nc31)C2(C)C (centres undefined)
→ 0.64	-7	-2.6	2.5	11	.	5
Cc1ccccc1NC(=O)CCN1CCN(C)CC1
→ 0.69	2	1.4	1.5	-1.3	i	3
O=C(NCCc1c[nH]c2ccccc12)/C(=C\c1ccco1)NC(=O)c1ccco1
→ 0.74	71	0.2	8.1	-1.8	i	-5
CCOC(=O)C(C)Sc1nnc(CSc2nc3nc(C)cc(C)n3n2)o1 (centres undefined)
→ 0.72	15	3.5	7.0	-0.1	.	-7
Cc1cc(C)cc(-n2nnnc2SCC(=O)N2CCOCC2)c1
→ 0.76	-3	-1.4	1.9	3.8	.	0
Cc1ccc2cc3c(NC(=O)C4CCCO4)nn(CC(C)C)c3nc2c1 (centres undefined)
→ 0.67	0	0.4	-97	-4.6	.	-4
O=C(COC(=O)/C=C/c1ccc(Cl)cc1)NCCN1C(=O)CSC1=O
→ 0.67	.	-0.5	3.8	-0.7	i	-3
CC(C)c1nc2sc3c(=O)[nH]cnc3c2c2c1CCCC2
→ 0.73	-33	-0.2	-2.8	-1.7	i	20
CCC(Oc1ccccc1)C(=O)Nc1ccccc1C(=O)N1CCN(C)CC1 (centres undefined)
→ 0.7	19	1.2	0.5	4.4	i	9

The listing continues:
Sequence of screens – E coli growth	ALR inh	HNF4A DNA FP	UCH37 inh	LANA-H2B inh	FGF22 binding	B2AR ag
CC(=O)NNc1ncnc2c1cnn2-c1ccccc1
→ 0.71	19	-3.0	5.1	-3.9	i	3
Cc1coc2cc3oc(=O)c(CCC(=O)NCCN4CCOCC4)c(C)c3cc12
→ 0.72	9	0.3	-65	-6.7	i	-6
O=C(C1CCCN(Cc2ccccc2)C1)N1CCc2ccccc2C1 (centres undefined)
→ 0.7	-24	-3.1	-1.4	5.1	.	9
Cn1c(=O)c2c(ncn2CC(=O)OCC(=O)Nc2ccc(Cl)cc2)n(C)c1=O
→ 0.68	-3	1.1	1.3	0.0	.	12
CCCCc1nc2cc(C(=O)NCc3ccccn3)ccc2o1
→ 0.64	-2	1.4	1.3	-0.1	i	-4
O=C(CNC(=O)C(c1ccccc1)c1ccccc1)N/N=C\c1ccc2c(c1)OCO2
→ .	2	-2.8	.	-0.7	.	5
COc1cc(C(=O)Nc2cc(C)cc(C)c2)c(-n2cnnn2)cc1OC
→ 0.64	-10	11	-1.4	-1.2	i	-3
CC(=O)N1CCCc2cc(S(=O)(=O)Nc3ccc4c(c3)OCO4)ccc21
→ 0.7	-11	1.1	3.6	3.8	.	16
O=C(c1ccncc1)N1CCN(S(=O)(=O)c2cccc([N+](=O)[O-])c2)CC1
→ 0.7	-49	-7.6	1.5	0.7	i	0
Clc1ccc2nc(CSc3nncn3-c3ccccc3)cn2c1
→ 0.7	-2	-0.8	-0.6	1.0	.	-11

(listing goes on)
Sequence of screens – E coli growth	ALR inh	HNF4A DNA FP	UCH37 inh	LANA-H2B inh	FGF22 binding	B2AR ag
CNC(=O)COC(=O)c1cc(-c2ccc(OC)cc2)nc2ccccc12
→ 0.68	-2	2.6	-84	1.2	i	22
CC(C)(C)n1ncc2c(=O)n(CC(=O)N3CCCc4ccccc43)cnc21
→ 0.77	-6	3.5	2.1	2.8	.	13
CC(C)c1ccc(NS(=O)(=O)c2ccc(Cl)nc2)cc1
→ 0.63	.	-1.6	4.6	.	.	-8
CCOC(=O)CNS(=O)(=O)c1cc(-c2nnc(Nc3ccc4c(c3)OCO4)c3ccccc23)ccc1C
→ .	-8	-1.4	.	3.1	.	19
Cc1ncc(CN2CCCC(C(=O)Nc3ccc(-n4ccnc4C)cc3)C2)cn1 (centres undefined)
→ 0.67	-1	5.4	2.0	-6.6	i	1

Screens (PubChem BioAssay)

The list is partial; rates above refer to the full screens.
